Biofilm kill mix – clotrimazole potentiators killing C. albicans biofilm, primary screen, 4-compound mixtures. C. albicans biofilm persisters + clotrimazole, fluorescence viability; primary screen in compound mixtures of four per well. inhibition, % at 7.6 µM. 120,000 tested, 0.02% active. AID 1242, 2008;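 active = inhibition above 30.3% in the primary screen of four-compound pools, then above 30% when the compound was retested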;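 note: compounds exposed to preformed 24 h biofilms for 48 h; the number belongs to the whole pool; some results filed as inactive read as strong as hits; inactives centre near 12; 0% = biofilm with clotrimazole alone and 100% = kill control; retested singly at about 60 µM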
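Probe or stimulus – Clotrimazole 50 µg/mL co-treatment · System – C. albicans biofilms · Schedule – 24 h biofilm formation, then 48 h compound exposure, 37 °C · Evaluation – percent inhibition of biofilm viability · Technique – 2-h Alamar Blue fluorescence, 535/590 nm excitation/emission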
Starred values were filed as active, the others as inactive.

SMILES | Biofilm kill mix
COC(=O)Cc1ccc(NC(=S)NCc2ccc(OC)cc2)cc1 | 1
CCc1nnc(NC(=O)CSc2nc(C)cc(C)c2C#N)s1 | 11
O=C(CCS(=O)(=O)c1ccccc1)Nc1nc(-c2cccs2)cs1 | 8
CN1C[C@@H]2C(c3ccccc3)C3(c4ccccc4)CC2(C3)[C@H]1c1ccccc1 (some centres not stated) | 14
c1ccc(SCCOCCN2CCc3ccccc3C2)cc1 | 6
CCN(C(=O)COC(=O)c1cc(-c2ccc3cc(OC)ccc3c2)nc2ccccc12)C1CCS(=O)(=O)C1 (configuration not stated) | 8
O=C(Cc1cccs1)Nc1nc(-c2cccnc2)cs1 | 31
CS(=O)(=O)N(CCC#N)Cc1ccc(C=O)o1 | 4
COc1cc(C(=O)Nc2ccc3c(c2)CCN3C(C)=O)cc(OC)c1OC | 2
CCCn1ncc(CN2CCC(CO)(CC3CCCCO3)CC2)c1C (configuration not stated) | 2
O=C(Cn1cnc2c(nnn2-c2ccccc2)c1=O)NCc1ccc(F)cc1 | 17
Cc1nc2ccc(F)cc2cc1C(=O)Nc1cccc(Cl)c1C | 10
Cc1ccc(C(OCC(O)CN2CCCCC2CO)c2ccccc2)cc1 (configuration not stated) | 6
O=C(/C=C/c1ccccc1)C1=C(O)C(=O)N(CCO)C1c1ccc2c(c1)OCO2 (configuration not stated) | 9
N/C(=N\OC(=O)C1CCCCC1)c1ccncc1 | 26

Next section:
SMILES | Biofilm kill mix
CCOC(=O)N/N=C/C=C/c1ccccc1 | 12
CC(NCc1ccc(S(N)(=O)=O)cc1)C(=O)Nc1cc([N+](=O)[O-])ccc1Cl (configuration not stated) | 5
c1ccc(CCc2nc3ccccc3[nH]2)cc1 | 11
Cc1ccc(O)c(C(=O)c2cnc3c(c2)c(-c2ccc(F)cc2)c(C#N)c(=O)n3C)c1 | 10
Cc1cccc(C(=O)O/N=C(\c2ccccc2)c2cccnc2)c1 | 12
CCN(C(=O)COc1cccnc1[N+](=O)[O-])C1CCS(=O)(=O)C1 (configuration not stated) | 8
CCOC(=O)c1ccc(NC(=S)N(CCCN2CCN(C)CC2)Cc2cccs2)cc1 | -3
Cc1ccc(SCCC(=O)Nc2ccccc2C(=O)NC2CCCCC2)cc1 | 18
Cc1cc(N2CCOCC2)nc2ccc(NC(=S)N3CCCCC3C)cc12 (configuration not stated) | 14
COc1cccc(OCc2ccc(Cl)cc2)c1C#N | 27
OCCN1CCN(c2cc(C(F)(F)F)nc3ccccc23)CC1 | 19
CN(Cc1ccccc1)c1nc2c(c(=O)[nH]c(=O)n2C)n1C | 14
Cn1cccc1/C=N/NC(=O)CSc1nc2ccccc2[nH]1 | 11
Cc1ccc(NC(=O)COC(=O)CCc2nc3ccccc3n2-c2ccccc2)c(C)c1 | 6
CCOc1ccc(N(CC(=O)Nc2ccccc2C(=O)N2CCOCC2)S(=O)(=O)c2ccc(F)cc2)cc1 | 19

(next part)
SMILES | Biofilm kill mix
Cc1ccc(NC(=S)NNC(=S)Nc2ccc(C)cc2C)cc1 | 5
CCN(CC)C(=O)c1sc(NC(=O)c2cccnc2)c(C(=O)OC)c1C | 13
CCC(=O)NC(=S)Nc1ccc(NC(=O)COc2ccccc2)cc1 | 12
COc1ccc(Nc2nc(N)c([N+](=O)[O-])c(NCc3ccccc3)n2)cc1 | 24
CCOCCCNC(=S)N1CCCC(c2nc3ccc(C)cc3[nH]2)C1 (configuration not stated) | 18
CC(=O)/C(C=Nc1noc(C)c1Br)=C(\C)O | 12
CCCN1C(=O)/C(=c2\sc3nc(=O)c(Cc4ccc(C)cc4)nn3c2=O)c2ccccc21 | 12
Cc1cc(C2(c3ccc(O)c(C)c3)OC(=O)c3ccccc32)ccc1O | 13
Cc1ccc(Nc2nc(-c3ccncc3)cs2)cc1 | 0
CC(C)c1ccc2c(c1)CCC1C(C)(CN)CCCC21C (configuration not stated) | 2
CCCn1c(NC(=O)c2ccccc2Br)nc2ccccc21 | 12
Clc1nc2ccccc2cc1/C=N/Nc1nc2ccccc2[nH]1 | 19
Nc1nnc(SCC(=O)NC2CCCc3ccccc32)s1 (configuration not stated) | 12
O=C(Nc1cccc2c1C(=O)NC2=O)c1cccc(N2C(=O)CCC2=O)c1 | 18
Cc1cccc2cc(C#N)c(SCC(=O)Nc3ccccc3N3CCOCC3)nc12 | 6

(further entries)
SMILES | Biofilm kill mix
COc1cc(NC(=S)N2CCN(C/C=C/c3ccccc3)CC2)cc(OC)c1 | -2
COc1cccc(NC(=O)c2sc(NC(=O)c3ccncc3)nc2C)c1 | 36
Cc1ccc(NC(=O)CSCC#N)cc1Cl | 11
COc1ccc(-n2c3c(c(=O)[nH]c2=O)C(NC(=O)c2ccncc2)(C(F)(F)F)C(=O)N3)cc1 (configuration not stated) | 9
CC(CCOC1=NS(=O)(=O)c2ccccc21)NC(=O)C(=O)Nc1ccccc1 (configuration not stated) | 3
COc1cc(/C=N/Nc2cccc(C)c2)ccc1OC(=O)c1cccs1 | 8
CCCCn1c(O)c(N=NC(=O)Cn2c(C(F)(F)F)nc3ccccc32)c2ccccc21 | 3
CCOc1cc(C(=O)OCC(=O)Nc2ccc(SC(F)F)cc2)cc(OCC)c1OCC | 2
CCS(=O)(=O)N1CCN(c2cc3c(cc2[N+](=O)[O-])n(C)c(=O)n3C)CC1 | -2
COc1cc2c3c(c1OC)C1(C=CC(=O)C=C1)CC3N(C(C)=O)CC2 (configuration not stated) | 20
O=C(O)/C=C/c1cn(Cc2ccccc2)nc1-c1cccs1 | 13
CCN(CC)S(=O)(=O)c1ccc(C(=O)NCCCn2ccnc2)cc1 | 11
CCC1=C(OC(=O)N(CC)CC)N2C(=O)OC(=NCC3CC3)[C@]2(C)[C@H]2C1=CC[C@H]1C(=O)N(CC)C(=O)[C@H]12 | 19
Cc1ccc(OCC(=O)Nc2ccc(S(=O)(=O)N3CCOCC3)cc2)c([N+](=O)[O-])n1 | 8
CC(=O)N/N=C(\C)c1cccc(NC(=O)c2cccs2)c1 | 16

(list continues)
SMILES | Biofilm kill mix
O=C(Cn1ccc([N+](=O)[O-])n1)N1CCCCCC1 | 4
CCOC(=O)C1(C(F)(F)F)N=C(C(F)(F)F)Nc2ccc(F)cc21 (configuration not stated) | 9
Cc1cccc(C(=O)N[C@H](C(=O)Nc2nc3ccc(S(C)(=O)=O)cc3s2)C(C)C)c1 | 16
COc1ccc(NC(=O)C2CCCN(S(=O)(=O)c3c(C)n[nH]c3C)C2)cc1OC (configuration not stated) | 13
CC(C)NC(=O)NC(=O)COC(=O)c1ncc(Cl)c(Cl)c1Cl | 7
CC(=O)N(CN1C(=O)CCC1=O)c1ccc(Cl)c(Cl)c1 | 13
CSc1cccc(NC(=S)N(CCN(C)C)C(C)c2ccncc2)c1 (configuration not stated) | 21
O=C(CSc1nccc(=O)[nH]1)c1c[nH]c2ccccc12 | 10
CCCCNC(=O)C(=O)N/N=C/c1ccc(C(=O)OC)cc1 | 9
COc1ccc(-c2c(C(C)=O)c(C)nc3sc4c(=N)n(N)cnc4c23)cc1 | 1
C=CC[N+](C)(C)CCCNC(=O)/C=N/O | 15
CC[n+]1c(/C=C/N(C)c2ccccc2)oc2ccc(F)cc21 | 2
CC(C)CC(C(=O)NC1CCCC1)N(Cc1cccs1)C(=O)c1snc(C(N)=O)c1N (configuration not stated) | 5
O=C(/C=C/c1ccc(O)cc1)c1ccccc1 | 4
COc1ccc(NC(=O)C(OC)c2ccccc2)cc1Cl (configuration not stated) | 9

Later entries
SMILES | Biofilm kill mix
Cc1ccc(Cn2ncc3c(N4CCN(CC#N)CC4)ncnc32)cc1 | -2
CCOC(=O)c1ccccc1NC(=O)CSc1nc2ccccc2c(=O)[nH]1 | 14
O=C(Nc1ccccc1[N+](=O)[O-])C1(c2ccccc2)CCOCC1 | 16
O=C(NC(=S)Nc1cccnc1)c1cc2ccccc2o1 | 17
COCCN1C=C2C(=O)C(C)(OC(=O)CCc3ccccc3)C(=O)C=C2C=C1c1ccc(C#N)cc1 (configuration not stated) | 16
COCCSc1ccccc1C(=O)Nc1ccc(Cl)cc1 | 12
Cc1ccc(C)c(S(=O)(=O)NCc2ccc(C(=O)N3CC(C)OC(C)C3)cc2)c1 (configuration not stated) | 17
C[C@H](NC(=O)OCc1ccccc1)C(=O)NNC(=O)[C@H](Cc1ccccc1)NC(=O)OC(C)(C)C | 18
COC(=O)c1cc(C(=O)c2ccccc2)n2c(=O)/c(=C\N(C)C)sc12 | 22
Cc1[nH]nc(SCC(=O)NCc2ccccc2)c1[N+](=O)[O-] | 12
CCOc1ccccc1CNCCNC(=O)c1nonc1N | 8
Cc1ccsc1/C=N/Nc1cccc(C(=O)O)c1 | 15
S=C(NCc1ccco1)NCC1CCCO1 (configuration not stated) | 14
COc1cc(NC(=O)C2=C(N3CCOCC3)/C(=C\c3ccc(N(C)C)cc3)CCC2)cc(OC)c1OC | 3
Cc1ccc(CNC(=O)C2CCCN(S(=O)(=O)c3c(C)noc3/C=C/N(C)C)C2)cc1 (configuration not stated) | 9

As entered above:
Reading for O=C(NC(=S)Nc1cccnc1)c1cc2ccccc2o1 in Biofilm kill mix: 17
Reading for COC(=O)c1cc(C(=O)c2ccccc2)n2c(=O)/c(=C\N(C)C)sc12 in Biofilm kill mix: 22

Additional compounds
SMILES | Biofilm kill mix
Cc1onc(-c2ccccc2Cl)c1C(=O)N1CCN(Cc2ccc3c(c2)OCO3)CC1 | 20
O=C1c2ccccc2C(=O)N1Cc1cnc(N2CCN(c3ccccc3)CC2)s1 | -8
O=C(NCCn1cc(SCc2ccccc2)c2ccccc21)c1c(F)cccc1F | 7
Cc1nnc(SCC(=O)N2CCCCC2)n1CC1CCCO1 (configuration not stated) | 3
CCOC(=O)C1=C(c2ccc(OC)cc2)OC(N)=C(C#N)C1c1cccnc1 (configuration not stated) | 28
CC(C)C(=O)NNc1ccc(C(F)(F)F)cn1 | 13
Cc1ccc(/C=C/C(=O)N2CCN(Cc3ccccc3)CC2)o1 | 12
CCOCc1[nH]c(=S)[nH]c(=O)c1Cc1ccc(OCC(C)C)cc1 | 10
NC(=O)CCC(NS(=O)(=O)c1ccc(Cl)cc1)C(=O)NCc1ccccc1 (configuration not stated) | 25
O=C(CNc1cccc([N+](=O)[O-])c1)N/N=C/c1ccc([N+](=O)[O-])o1 | 19
COc1ccc(N(C(=O)c2cccc([N+](=O)[O-])c2)S(=O)(=O)c2cccs2)cc1 | 11
COc1ccc(C(CC(=O)N2CCCCC2)NC(=O)C(F)(F)F)cc1 (configuration not stated) | 11
Cc1cccc(Cn2ccc(N)n2)c1 | 7
N#Cc1c(-c2ccccc2F)cc(-c2cccnc2)nc1N | 8
CCOCCCNC(=O)CNC(=S)N(Cc1ccc(C)cc1)Cc1ccco1 | 9

By substructure, the entries above with a COOH group (2)
SMILES | Biofilm kill mix
O=C(O)/C=C/c1cn(Cc2ccccc2)nc1-c1cccs1 | 13
Cc1ccsc1/C=N/Nc1cccc(C(=O)O)c1 | 15

(cont.)
SMILES | Biofilm kill mix
CCS(=O)(=O)N1CCN(c2ccc(S(=O)(=O)N3CCOCC3)cc2)CC1 | 12
C#Cc1cccc(-n2nnc(C(C)=O)c2C)c1 | 18
CC(=O)NNc1cc(N2CCOCC2)nc(N2CCOCC2)n1 | 9
NC(=O)c1c(NC(=O)Cn2nc(C(=O)O)c3ccccc3c2=O)sc2c1CCCC2 | 15
O=S(=O)(NCc1ccc(Cl)cc1Cl)c1ccc(N2CCOCC2)nc1 | 7
Cc1c(Cl)c([N+](=O)[O-])nn1CC(=O)N1CCN(Cc2ccccc2)CC1 | 12
COc1ccc2c(c1OC)C(=O)N(c1ccccc1)C2=O | 9
Oc1ccccc1/C=C/c1noc(-c2ccccc2O)n1 | 8
CC(C)CCn1cnc2c(oc3nc4c(cc32)CCCC4)c1=O | 1
Cc1cc(C(=O)OCC(=O)Nc2cccc(S(N)(=O)=O)c2)c2ccccc2n1 | 20
Cc1noc(C(F)(F)F)c1C(=O)NNC(=O)c1ccccc1 | 18
O=C(CN1CCCC1)NC12CC3CC(CC(C3)C1)C2 | 3
CCOC(=O)CC(NC(=O)CCc1c(C)nc2ncnn2c1C)c1ccc(C)cc1 (configuration not stated) | 11
CCc1ccccc1NC(=S)N(CCN1CCCCCC1)Cc1ccco1 | 9
OC1(c2ccc(OC(F)F)cc2)CSC(=Nc2cccnc2)N1Cc1ccco1 (configuration not stated) | 9

Some of the entries above in a different format:
> Cc1c(Cl)c([N+](=O)[O-])nn1CC(=O)N1CCN(Cc2ccccc2)CC1
  Biofilm kill mix = 12
> COc1ccc2c(c1OC)C(=O)N(c1ccccc1)C2=O
  Biofilm kill mix = 9
> Oc1ccccc1/C=C/c1noc(-c2ccccc2O)n1
  Biofilm kill mix = 8

(next part)
SMILES | Biofilm kill mix
Cc1noc(NC(=O)c2cccc(C(F)(F)F)c2)c1Cl | 17
O=C(c1ccccc1F)N1CCCC(C(=O)N2CCN(c3ccccc3)CC2)C1 (configuration not stated) | 23
Nc1nc(Cl)cc(NCCc2ccccc2)n1 | 12
CCOc1cc(C(=O)O)cc(Cl)c1OCC#N | 10
CN(C)S(=O)(=O)c1cccc(NC(=S)NN=C(Cc2ccccc2)Cc2ccccc2)c1 | 8
Cc1nc(SCCOc2ccccc2)[nH]c(=O)c1Cc1ccccc1 | 10
CC(=O)/C(=N\Nc1ccccc1)Sc1cccc2cccnc12 | 18
Cc1ccc(S(=O)(=O)Nc2ccccc2/C=N/c2nc3ccccc3n2C)cc1 | 23
CCC(=O)NNC(=O)c1cc(COc2cc(Cl)cc(Cl)c2)on1 | 2

These rows are one share of the data; count on the stated rates, not on these rows.
